# Compound activity (PubChem)
# CtBP-E1A blk – CtBP/E1A binding inhibition | AID 651724 | 340,000 compounds, 0.49% hits | activity change, % (concentration not given with the values) | AlphaScreen GST-E1A/His-CtBP binding, 1536-well; active compounds read low; control for the full effect not named in the record; in the data active means activity change below about -65%; inconclusive means about -30% to -65%; inactive means above about -30%; note: % is set by controls: 0 for no effect and ±100 for the full control effect
#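 GST-E1A and His-tagged CtBP (125 nM each as 5X stock) were preincubated with pin-transferred compound for 2 h at 37 °C in the dark, then glutathione donor and nickel acceptor beads were added for 1 h before AlphaScreen reading.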
# gsp ag – activates gsp, the McCune-Albright syndrome mutation; gsp mutant cells, cAMP HTRF, 30 min; control for the full effect not named in the record; Potency, µM (doses to about 76.9 µM), inactives show top-dose activation (cAMP increase), hits mostly activators; 340,000 compounds, 0.13% hits; AID 624287; active = well fitted activation curve with a large enough effect; inconclusive = small, poorly fitted or top-dose-only effect, or another doubt; inactive = no such curve, though single readings can be large or run the other way; cell line not stated here;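 note: phosphodiesterase inhibitor Ro 20-1724 added with compounds to block cAMP breakdown; potency is the fitted concentration of half-maximal effect; nearly all actives have a fitted effect of over 60% in size; about a fifth of the inactives were tested at one dose only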
#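 Cells stably selected in G418 were plated at 2000/well, grown 16-24 hr, then given compounds in DMSO with the PDE inhibitor […] (300 uM solution added) for 30 min at 37C; cAMP was read by HTRF.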
# Six1-Eya2 inh – Six1/Eya2 interaction inhibition; Q15475+O00167; AlphaScreen GST-Six1/His-Eya2 binding, biochemical; active compounds read low; control for the full effect not named in the record; activity change, % (concentration not given with the values); 360,000 compounds, 0.56% hits; AID 651725; in the data active = activity change below about -65%; inconclusive = about -30% to -65%; inactive = above about -30%; note: % is set by controls: 0 for no effect and ±100 for the full control effect
#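 AlphaScreen luminescence read after one hour at 37 °C in darkness. Pin-transferred compounds met GST-Six1 and His-Eya2 protein (5X stock 250 nM/500 nM) plus glutathione donor and Ni-chelate acceptor beads (5X, 50 ug/mL).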
# D2 agonist – human D2 receptor agonism in beta-arrestin assay. AID 624465. DiscoveRx PathHunter D2 beta-arrestin, luminescence, 90 min; 100% = 57 uM dopamine signal. 360,000 compounds, 0.084% hits. activation, % (test concentration not listed); in the data active = activation above about 40%; inconclusive = about 15% to 40%; inactive = below about 15%; note: compound concentration not given in the record; the text of the record calls up to 30% inactive
# Target sequence (P14416 whole entry, looked up): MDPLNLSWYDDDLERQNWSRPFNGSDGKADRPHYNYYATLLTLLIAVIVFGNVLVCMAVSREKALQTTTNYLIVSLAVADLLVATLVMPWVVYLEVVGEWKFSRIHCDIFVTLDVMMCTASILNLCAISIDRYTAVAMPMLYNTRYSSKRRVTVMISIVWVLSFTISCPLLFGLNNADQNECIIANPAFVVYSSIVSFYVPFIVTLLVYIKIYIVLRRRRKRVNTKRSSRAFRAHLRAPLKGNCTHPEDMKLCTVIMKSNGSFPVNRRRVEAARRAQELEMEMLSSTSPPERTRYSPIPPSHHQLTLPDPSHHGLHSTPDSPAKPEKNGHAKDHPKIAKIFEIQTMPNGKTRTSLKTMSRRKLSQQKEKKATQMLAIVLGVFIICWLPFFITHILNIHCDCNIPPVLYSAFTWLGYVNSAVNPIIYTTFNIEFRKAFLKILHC
#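 Agonist mode: compounds alone added to overnight-plated D2 PathHunter cells for 90 min at 37 C, with 57 uM final dopamine (EC100) defining full response. Beta-arrestin recruitment detected by chemiluminescent reagent, read after 1 h at ambient temperature.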
# D2 PAM – potentiates the human D2 dopamine receptor allosterically; P14416; DiscoveRx D2 beta-arrestin cells, luminescence, 90 min; 100% = 57 uM dopamine signal; potentiation, % (no concentration beside the values); 360,000 compounds, 0.23% hits; AID 624464; active = potentiation of 50% or more; inconclusive = 30% to 50%; inactive = 30% or less;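 note: compound concentration not given in the record; tested on top of an EC20 dose of dopamine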
#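 D2 cells co-treated with compound plus 50 nM dopamine (EC20) for 90 min at 37 deg C to detect potentiation. Beta-arrestin recruitment was read as enzyme-fragment luminescence after 1 h at ambient temperature. Full response was set by 57 uM dopamine.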
# gsp antag – antagonizes gsp, the McCune-Albright syndrome mutation | gsp-mutant cells, cAMP HTRF, 30 min; control for the full effect not named in the record | Potency, µM (titrated, usually from 76.9 µM), for the others: top-dose activity change, negative = inhibition, hits mostly inhibitors | 340,000 compounds, 0.4% hits; active = falling curve of any shape with a large fitted effect; inconclusive = falling curve, mostly with a smaller effect; inactive = flat or rising curve; cell line not stated here;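 note: intracellular cAMP measured with PDE inhibitor Ro 20-1724 present during compound exposure; potency is the fitted concentration of half-maximal effect; % is set by controls: 0 for no effect and ±100 for the full control effect; nearly all actives have a fitted effect of over 65% in size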
#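 G418-selected cells were plated in DMEM/10% FBS for 16-24 h at 37C, then treated with compounds plus the PDE inhibitor […] (300 uM solution added) for 30 min at 37C. Intracellular cAMP was measured by HTRF after 30 min lysis at room temperature.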
# Starred values were filed as active, the others as inactive; ? = inconclusive; / = not tested or not shown; [ ] = remark or other dose.
SMILES,CtBP-E1A blk,gsp ag,Six1-Eya2 inh,D2 agonist,D2 PAM,gsp antag
O=C(c1ccccc1)c1ccc(OCC(O)CNCc2cccc(Cl)c2)cc1 (centres undefined),24,-9%[15.4 µM],25,-7.3,-7,-8%
CNC(=O)CSc1nnc(NC(=O)C2CC(=O)N(c3ccccc3OC)C2)s1 (centres undefined),2,14%[15.4 µM],2,-4.4,-22,3%
O=C(COc1ccccc1Br)NCCc1nc2ccccc2[nH]1,-3,-18%,-2,-2.1,-2,-3%
NS(=O)(=O)c1ccc(NC(=O)Nc2ccc(Cl)cc2)cc1,-5,14%,9,3.2,-4,-3%
N=C1C(c2nc(-c3ccc(F)cc3)cs2)=C(O)CN1Cc1ccc(Cl)cc1,-1,23%,2,-1.0,-21,-2%
COc1ccccc1N(C)S(=O)(=O)c1ccc(Cl)c(C(=O)OCc2c(C)noc2C)c1,22,?,2,3.4,-4,?
O=C(C[n+]1ccc2c(c1)nnn2-c1ccccc1)c1ccc(Cl)cc1,-16,-7%[15.4 µM],-13,-5.7,-13,5%
CN1CCN(c2ccc(NC(=O)c3cc([N+](=O)[O-])ccc3N3CCOCC3)cc2)CC1,9,-32%,-15,-4.7,-24,7%
COc1cc(NC(=O)Cc2ccc(OC)c(S(=O)(=O)N3CCOCC3)c2)c(OC)cc1Cl,-2,1%[15.4 µM],18,-5.0,15,-10%
Cc1ccccc1C(=O)OC1OC(=O)C(Cl)=C1Nc1ccccc1 (centres undefined),-4,6%[15.4 µM],8,-3.5,-8,?
COc1ccc(C2C(C(=O)O)CCC(=O)N2c2ccc(OC)cc2)cc1 (centres undefined),7,-16%,-1,-2.1,-7,1%
Fc1ccc(NC(=S)N2CCN(C/C=C/c3ccccc3)CC2)c(F)c1,/,-52%[inhibitor],8,-6.3,-6,-3%
CCOC(=O)N(C)S(=O)(=O)c1ccccc1[N+](=O)[O-],-17,-21%[15.4 µM],4,-0.9,4,7%
C=CC[C@@H](CC(=O)OC(C)(C)C)C(=O)OC[C@H]1CCCN1C(=O)[C@@H](CC=C)CC(=O)N[C@H](CO)Cc1ccccc1,6,10%,2,3.1,3,-16%
COc1ccc(CCNC(=O)c2cc(-c3ccc(C)c(C)c3O)n[nH]2)cc1OC,-12,-9%,0,0.5,-14,3%
CCOc1ccc(Cc2nn[nH]n2)cc1,0,14%,14,-1.1,9,7%
O=C(O)c1ccccc1C(=O)Nc1ccc(Br)c(C(F)(F)F)c1,/,-20%,7,1.5,-1,-2%
COc1ccccc1/C=C/CN1CCCCC1,8,11%[15.4 µM],2,1.0,-10,-13%
CN(CCCC(=O)O)c1ccc(N=Nc2ccc([N+](=O)[O-])cc2)cc1,/,0%,?,-14,-5,-29%
COc1ccc(C(=O)NC(=S)NNC(=O)c2cccc(C)c2)cc1,-10,-2%,3,-6.5,-10,-3%
Clc1ccc(Cn2ncc3c(N4CCOCC4)ncnc32)cc1,-3,-92%[inhibitor],-8,-1.3,6,1%[15.4 µM]
COc1ccccc1-c1cc(C(=O)NCc2ccc(Cl)cc2)no1,16,-19%,7,-2.3,-17,3%
CCOc1cc2[nH]c(=O)n(CCC(=O)NCCc3ccccc3)c(=O)c2cc1OCC,-2,-30%,8,-1.3,-15,-8%
CC(=O)N1[C@H](Cc2ccccc2)C=C[C@]1(C)C(=O)NCCN1CCOCC1,6,/,6,0.1,-7,6%
CN1CCC(C2(O)c3ccccc3CCc3ccccc32)CC1,-4,-7%,-6,-4.0,-33,19%
# More compounds follow:
SMILES,CtBP-E1A blk,gsp ag,Six1-Eya2 inh,D2 agonist,D2 PAM,gsp antag
CC(=O)Nc1ccc(C(=O)N2CCCCC2c2cc(C(=O)Nc3ccccc3)no2)cc1 (centres undefined),0,/,7,-1.7,0,/
CCN(CC)C(=O)c1ccccc1NC(=O)c1ccccc1C,-4,6%[15.4 µM],-1,-5.0,-17,3%
O=C(OCn1nnc2ccccc2c1=O)c1cc(-c2ccccc2)nc2ccccc12,-1,-1%,14,-2.1,0,-9%
CC(C)CNS(=O)(=O)c1ccc(CCC(=O)Nc2cc(Cl)ccc2Oc2ccccc2)cc1,9,6%,6,1.3,-12,?
O=C(CSc1nc2c(cnn2-c2ccccc2)c(=O)[nH]1)N1CCCCC1,-1,?,2,-5.5,3,-11%
COc1cnn(-c2ccc(C)cc2)c(=O)c1Cl,3,?,-2,-4.8,-2,-8%
Cc1ccn2c(/C=N/OCc3cccc(F)c3)c(-c3ccc(Cl)cc3)nc2c1,-3,-19%,18,-2.3,-6,0%
COc1ccc(CCNC(=O)Cn2nnc(-c3cccc(OC)c3OC)n2)cc1OC,-2,-20%,-2,1.1,-3,9%
CCOc1ncccc1C(=O)OCC(=O)NC(=O)c1ccccc1,6,-12%,-2,-1.9,-2,3%
CC(Oc1ccc2c3c(c(=O)oc2c1)CCC3)C(=O)NCc1ccccn1 (centres undefined),1,?,5,1.3,2,-2%
COc1ccccc1C(=O)NC(=O)COC(=O)Cc1ccc(F)cc1,-9,3%,-2,-7.5,0,17%
NC(=O)[C@@H]1CC2(CC(c3cccc(NC(=O)[C@H]4CCC(=O)N4)c3)=NO2)CN1C(=O)COc1ccc(Cl)cc1 (some centres undefined),5,20%,0,-4.2,-7,6%
Brc1ccc(OCCn2ccnc2)cc1,6,-31%[inhibitor],0,-0.9,10,6%
O=C(c1ccc(CN2CCOCC2)cc1)N1CCN(c2ccccc2F)CC1,-1,-33%[inhibitor],16,2.1,4,4%
CCc1nnc(NC(=O)CS(=O)(=O)c2ccccc2)s1,2,-6%[15.4 µM],0,-3.4,0,3%
COc1ccccc1C1NC=C([N+](=O)[O-])C=C1[N+](=O)[O-] (centres undefined),-1,4%[15.4 µM],1,-7.2,-12,-14%
Cc1ccc(NC(=O)N2CCCC2C(=O)NCC2CCCCC2)cc1 (centres undefined),-10,-2%[15.4 µM],-3,-0.8,-6,-7%
COc1ccc(N=Nc2cnc(C)nc2-c2ccccc2)cc1,-29,-2%,?,0.5,-23,-12%
CC1CCN(S(=O)(=O)c2ccc(C(=O)N3CCCC(C(F)(F)F)C3)cc2)CC1 (centres undefined),0,-9%[15.4 µM],7,2.8,-7,3%
O=C(COc1ccccc1-c1ccccc1)N/N=C/c1cccnc1,2,-2%,-4,-1.7,-10,1%
CN(C)CCCNc1ncnc2oc(-c3ccccc3)c(-c3ccccc3)c12,-3,23%[15.4 µM],-1,-4.6,-17,3%
O=C(C1CCCCC1)N1CCc2ccccc21,2,-30%,6,-5.3,-4,-1%
O=C(C[n+]1ccccn1)c1ccccc1,1,-2%[15.4 µM],-10,1.8,1,4%
COC(=O)CN(C(=S)Nc1ccc(F)cc1)C1CC(=O)N(c2ccccc2)C1=O (centres undefined),15,7%,8,1.6,-23,-10%
Cc1ccc(C(=O)C2OC(=O)C(C)(C)C(=O)C2(C)C)cc1 (centres undefined),3,-7%,11,-0.2,-5,2%
# (next part)
SMILES,CtBP-E1A blk,gsp ag,Six1-Eya2 inh,D2 agonist,D2 PAM,gsp antag
CC(C)Sc1ccccc1C(=O)Nc1ccc2c(c1)n(C)c(=O)n2C,-16,22%[15.4 µM],-20,2.2,-36,-14%
O=C(CSc1nnc(-c2ccc(S(=O)(=O)N3CCOCC3)cc2)o1)c1ccccc1F,9,-2%,0,-0.3,4,-10%
CCCOc1ccc(-c2nnn(CC(=O)N3CCCC(C)C3)n2)cc1 (centres undefined),-24,26%,-9,-7.0,-12,-7%
O=C1CC(N2CCN(c3ccccn3)CC2)C(=O)N1CC(c1ccccc1)c1ccccc1 (centres undefined),-12,3%,-12,-0.6,-13,-25%
O=C(O)c1nn(-c2cccc(Cl)c2)c(=O)cc1O,0,6%,-1,2.6,12,5%
OCCCn1c(-c2ccccc2)nc(=S)c2c1CCCC2,6,?,1,-0.5,-8,1%
CCNc1ccc(S(=O)(=O)C(F)(F)F)cc1NC(=O)C12CCC(CC1)C2,7,-2%,3,2.4,-21,6%
N#Cc1ccc(N2CCc3ccccc3C2)c([N+](=O)[O-])c1,0,10%[15.4 µM],-9,0.7,0,4%
CN(C)/C=C(\C(=O)c1cccc(Cl)c1)c1nnnn1-c1ccccc1,2,1%[15.4 µM],6,-3.4,-7,4%
Cc1ccnc(NC(=O)c2cc3ccccc3oc2=O)c1,-2,-5%[15.4 µM],-5,0.1,3,0%
CC1CCN(c2nc3c(N)ncnc3n2[C@@H]2O[C@H](CO)[C@@H](O)[C@H]2O)CC1,3,?,-21,-6.7,6,12%
CC(=O)NCCNc1nc(NCC2CC2)nc2cc(-c3ccccc3)sc12,-13,/,-12,-6.3,-18,/
COc1ccc(Nc2nc(-c3cccc([N+](=O)[O-])c3)nc3ccccc23)c(OC)c1,7,-14%,3,0.7,-2,3%
CCOC(=O)c1cnc(-n2nc(C)cc2C)nc1Nc1ccc(N(C)C)cc1,-6,2%,-20,-7.7,-7,-23%
CCOC(=O)c1sc2nc(C3CC3)cc(-c3ccc(F)cc3)c2c1N,40,22%,45,-2.0,3,15%
COCCCn1c(SCC(=O)Nc2nc3ccccc3s2)nnc1-c1ccoc1C,7,9%,-3,-2.0,-7,0%
Cc1cccc(N(CC(=O)Nc2ccccc2F)S(C)(=O)=O)c1,2,-38%[inhibitor],0,-2.6,-7,2%
COc1ccc(NC(=O)N(C)C[C@H]2Oc3c(NS(=O)(=O)c4cccs4)cccc3C(=O)N([C@H](C)CO)C[C@@H]2C)cc1,0,-7%,-6,-1.8,-3,-3%
CC(=O)C(C)Oc1ccc2c3c(c(=O)oc2c1)CCCCC3 (centres undefined),5,-7%,0,-0.5,5,?
Cc1nc2ccccc2c(=O)n1NC(=O)Nc1ccccc1,-9,-59%[inhibitor],0,-0.2,12,3%

# 5 entries from above, arranged by number of heavy atoms, low to high.
SMILES,CtBP-E1A blk,gsp ag,Six1-Eya2 inh,D2 agonist,D2 PAM,gsp antag
CCc1nnc(NC(=O)CS(=O)(=O)c2ccccc2)s1,2,-6%[15.4 µM],0,-3.4,0,3%
N#Cc1ccc(N2CCc3ccccc3C2)c([N+](=O)[O-])c1,0,10%[15.4 µM],-9,0.7,0,4%
O=C(O)c1ccccc1C(=O)Nc1ccc(Br)c(C(F)(F)F)c1,/,-20%,7,1.5,-1,-2%
CN(C)CCCNc1ncnc2oc(-c3ccccc3)c(-c3ccccc3)c12,-3,23%[15.4 µM],-1,-4.6,-17,3%
COC(=O)CN(C(=S)Nc1ccc(F)cc1)C1CC(=O)N(c2ccccc2)C1=O (centres undefined),15,7%,8,1.6,-23,-10%

# A second format for three compounds above:
Structure	CtBP-E1A blk	gsp ag	Six1-Eya2 inh	D2 agonist	D2 PAM	gsp antag
CN(C)/C=C(\C(=O)c1cccc(Cl)c1)c1nnnn1-c1ccccc1	2	1%[15.4 µM]	6	-3.4	-7	4%
Cc1ccnc(NC(=O)c2cc3ccccc3oc2=O)c1	-2	-5%[15.4 µM]	-5	0.1	3	0%
CC1CCN(c2nc3c(N)ncnc3n2[C@@H]2O[C@H](CO)[C@@H](O)[C@H]2O)CC1	3	?	-21	-6.7	6	12%
